# gsp ag – agonists of gsp mutant (McCune-Albright syndrome); gsp mutant cells, cAMP HTRF, 30 min; control for the full effect not named in the record; Potency, µM (highest dose often 76.9 µM), for the others: at the highest dose activation (cAMP increase), usual class: activators; 0.13% of 340,000 active; AID 624287; active = well fitted activation curve with a large enough effect; inconclusive = small, poorly fitted or top-dose-only effect, or another doubt; inactive = no such curve, though single readings can be large or run the other way; cell line not stated here;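 note: phosphodiesterase inhibitor Ro 20-1724 added with compounds to block cAMP breakdown; potency is the fitted concentration of half-maximal effect; nearly all actives have a fitted effect of over 60% in size; about a fifth of the inactives were tested at one dose only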
#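 Cells in DMEM/10% FBS with G418 were pretreated with compounds in DMSO plus […] (300 uM stock) for 30 min at 37C. cAMP was measured by HTRF (cAMP-d2 plus anti-cAMP antibody-K) after 30 min at room temperature.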
# gsp antagonist – gsp mutant antagonism; gsp-mutant cells, cAMP HTRF, 30 min; control for the full effect not named in the record; Potency, µM (series often up to 76.9 µM), for inactives: at the highest dose activity change, negative = inhibition, usual class: inhibitors; 0.4% of 340,000 active; active = falling curve of any shape with a large fitted effect; inconclusive = falling curve, mostly with a smaller effect; inactive = flat or rising curve; cell line not stated here;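 note: intracellular cAMP measured with PDE inhibitor Ro 20-1724 present during compound exposure; potency is the fitted concentration of half-maximal effect; % is set by controls: 0 for no effect and ±100 for the full control effect; nearly all actives have a fitted effect of over 65% in size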
#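 HTRF cAMP measurement after 30 min RT detection following 30 min, 37C compound treatment alongside […] (added as 300 uM solution) in G418-selected cells seeded at 2000/well and grown 16–24 h.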
# ClpP mod – qHTS Assay for Activators of ClpP; ATP-dependent Clp protease proteolytic subunit (Bacillus subtilis (strain 168)), P80244; purified B. subtilis ClpP, FRET peptide cleavage, 20 min; Potency, µM (highest dose often 57.5 µM), for inactives: at the highest dose activity change, negative = active; 1.9% of 340,000 active; active = well fitted falling curve with a large enough effect; inconclusive = small, poorly fitted or top-dose-only effect; inactive = no such curve, though single readings can be large or run the other way; note: potency is the fitted concentration of half-maximal effect; the source files actives as falling curves though it sought activators and does not explain the sign; nearly all actives have a fitted effect of over 65% in size; many hits overshoot -100%
# Target sequence (P80244 whole entry, looked up): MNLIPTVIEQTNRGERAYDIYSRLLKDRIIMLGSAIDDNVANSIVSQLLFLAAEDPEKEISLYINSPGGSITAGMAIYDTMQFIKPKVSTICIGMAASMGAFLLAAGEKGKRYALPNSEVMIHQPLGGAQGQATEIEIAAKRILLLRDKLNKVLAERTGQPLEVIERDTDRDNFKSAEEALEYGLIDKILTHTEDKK
#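 Purified B. subtilis ClpP, 10 microg/mL final in Tris/HCl pH8 with KCl, BSA, glycerol and Tween-20, cleaved an Abz/nitrotyrosine-quenched decapeptide. Fluorescence (ex 320, em 430) was read at 0 and 20 min at room temperature. Delta was normalized to 5.8 microM ADEP and DMSO/no-enzyme controls.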
# Menin-MLL FL inh – menin-MLL binding inhibition, fluorescein peptide. Fluorescence polarization, fluorescein-MLL peptide displacement from menin. FP activity change, % at 61.4 µM. 290,000 tested, under 10 active; inconclusive = falling polarisation curve, or a change in total fluorescence; inactive = total fluorescence flat and polarisation flat or rising; no compound was filed as active; the % refers to the polarisation; negative = inhibition;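 note: % of control where 0% means no effect; inhibitors lower the polarisation; unlabelled MLL peptide was the positive control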
# D2 potentiator – positive allosteric modulators of human D2 dopamine receptor | 0.23% of 360,000 active | DiscoveRx D2 beta-arrestin cells, luminescence, 90 min; 100% = 57 uM dopamine signal | AID 624464 | potentiation, % (no concentration beside the values); active = potentiation of 50% or more; inconclusive = 30% to 50%; inactive = 30% or less;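 note: compound concentration not given in the record; tested on top of an EC20 dose of dopamine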
# Target sequence (P14416 whole entry, looked up): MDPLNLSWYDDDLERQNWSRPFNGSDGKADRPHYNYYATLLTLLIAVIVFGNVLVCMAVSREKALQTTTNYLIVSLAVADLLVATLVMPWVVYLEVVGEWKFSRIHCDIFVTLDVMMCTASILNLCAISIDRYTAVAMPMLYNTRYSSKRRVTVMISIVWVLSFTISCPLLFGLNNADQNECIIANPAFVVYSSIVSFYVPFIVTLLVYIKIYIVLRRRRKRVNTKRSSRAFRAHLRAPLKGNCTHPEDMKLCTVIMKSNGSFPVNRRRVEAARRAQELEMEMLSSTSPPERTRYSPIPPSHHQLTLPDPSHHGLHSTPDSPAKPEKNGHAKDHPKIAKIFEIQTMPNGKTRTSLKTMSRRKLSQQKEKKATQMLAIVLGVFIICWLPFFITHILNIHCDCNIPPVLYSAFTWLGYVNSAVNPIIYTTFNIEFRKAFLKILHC
#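 D2 cells co-treated with compound plus 50 nM dopamine (EC20) for 90 min at 37 deg C to detect potentiation. Beta-arrestin recruitment was read as enzyme-fragment luminescence after 1 h at ambient temperature. Full response was set by 57 uM dopamine.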
# TRPV1 PAM – human TRPV1 potentiation | Q8NER1 | TRPV1-expressing cells, Fluo-8 calcium influx, capsaicin EC20 potentiation; host cell line not named in the record; control for the full effect not named in the record | potentiation, % at 8.33 µM | 0.02% of 320,000 active; active means potentiation above 80%; inconclusive means 30% to 80%; inactive means below 30%; note: 0% is about no effect
#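 TRPV1-expressing cells were cultured overnight at 35.5C and loaded with Fluo-8 calcium dye for 40 to 90 min at room temperature. After a 10 s baseline, compound was added and calcium influx was read kinetically for 3 min (ex 480/em 520 nm).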
# Sfp PPTase inh – inhibitors of Bacillus subtilis Sfp phosphopantetheinyl transferase. Q9F4F7. Biochemical Sfp PPTase activity, qHTS. Potency, µM, for inactives: max response, negative = inhibition, hits mostly inhibitors. 3.5% of 310,000 active. AID 1490; active = well fitted inhibition curve with a large enough effect; inconclusive = small, poorly fitted or top-dose-only effect, or another doubt; inactive = no such curve, though single readings can be large or run the other way;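 note: the enzyme is Sfp with the accession as filed and its product quenches rhodamine fluorescence; potency is the fitted concentration of half-maximal effect; 0% = enzyme reaction without inhibitor and -100% = no enzyme wells; top concentration of the series not given in the record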
#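 Buffer: 50 mM Hepes-Na pH 7.6, 10 mM MgCl2, 0.01% Nonidet P-40, 0.01% BSA. Enzyme 15 nM, pre-exposed to compound 15 min; substrates then added and fluorescence change tracked over 30 min.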
# Numbers without * were called inactive; ? = inconclusive; . = not tested or not shown; & = joins results of further samples; ! = not confirmed by another sample; [ ] = remark or other dose.
canonical_smiles	gsp ag	gsp antagonist	ClpP mod	Menin-MLL FL inh	D2 potentiator	TRPV1 PAM	Sfp PPTase inh
CCN(CC)S(=O)(=O)c1cc(NC(=O)COC(=O)C2CCC2)ccc1C	10.8%	5.2%	1.3%	.	3.2	-10.0	.
O=S(=O)(c1ccccc1)c1ncc(C(F)(F)F)cc1Cl	-11.5%[15.4 µM]	-8.5%	.	3.3	-3.9	14.6	17.4%
Cc1cc(=O)oc2cc(OCC(=O)N3CCCC3)ccc12	2.4%	1.2%	4.5%	.	-5.2	.	.
COc1cccc(OCCCCN2CC(C)OC(C)C2)c1 (stereo unspecified)	6.2%	10.4%	-0.9%	2.2	-37.8	1.3	-28.1%
CCN(CC(=O)Nc1c(F)cccc1F)C(=O)CCN1C(=O)C2CCCCC2C1=O (stereo unspecified)	-11.8%[15.4 µM]	5.8%	.	.	-17.5	21.4	.
COc1ccc(CCNC(=O)CCCN2C(=O)C(c3ccccc3)Oc3cccnc32)cc1OC (stereo unspecified)	-15.0%	-15.3%	-4.4%	.	-26.2	-20.8	13.4%
Cc1ccsc1C(=O)NNC(=O)C1C2C=CC(C2)C1C(=O)O (stereo unspecified)	-12.1%	11.4%	-0.5%	3.6	-2.9	-33.1	-1.3%
Cc1nc(SC(C(=O)c2ccccc2)c2ccccc2)n[nH]1 (stereo unspecified)	0.8%	-14.0%	2.2%	1.5	-5.7	-11.2	10.9%
CCOC(=O)c1c(NC(=O)C2CC2)sc2c1CC(C)(C)OC2	1.7%	-14.5%	.	3.3	-5.3	12.6	8.9%
CCC(Oc1cccc(C)c1)C(=O)Nc1ccccc1C(=O)N1CCOCC1 (stereo unspecified)	-5.1%	-3.7%	1.3%	.	10.0	-5.8	8.9%
CC(=O)c1cccc(NC(=O)c2ccc(-c3ccccc3[N+](=O)[O-])o2)c1	18.9%[15.4 µM]	44.7µM*	-4.5%	6.0	-21.1	-2.1	-69.5%
NC(=O)c1ccc(-c2nnc(Nc3ccc(S(N)(=O)=O)cc3)c3ccccc23)cc1	-10.3%[15.4 µM]	9.1%	?	-6.0	4.1	3.1	3.6%
Cc1cc(C)c(-c2c(O)c3cccnc3n(C)c2=O)c(C)c1	-1.8%[15.4 µM]	0.7%	.	.	-8.2	.	.
O=C(Nc1sc2c(c1C(=O)O)CCC2)c1cccc(Cl)c1	15.7%	?	.	3.4	1.4	-14.7	-7.2%
CC(=O)c1ccc(N(C)C)c2c(N(C)C)cccc12	-2.2%	19.2%	1.8%	0.1	2.6	-3.3	-28.9%
C=CCNC(=O)/C(=C\C=C\c1ccccc1)NC(=O)c1ccccc1Cl	0.0%[15.4 µM]	-13.1%	.	6.6	0.3	-7.3	7.5%
O=C(Nc1ccccc1)NC1(C(=O)NCc2cccs2)CCCCC1	2.6%	5.5%	1.8%	-3.3	-6.8	-0.1	7.0%
O=C(C1=C(O)C(=O)N(Cc2ccco2)C1c1cccs1)c1cccs1 (stereo unspecified)	?	-11.6%	-1.9%	-1.5	-12.8	21.0	-63.5%
CCOc1cccc2sc(=NC(=O)c3ccco3)n(CC(=O)OC)c12	27.9%	-13.8%	4.2%	4.2	11.3	-4.3	-7.6%
CC(C)C(NC(=O)c1ccc(C(C)(C)C)cc1)C(=O)NCc1ccccn1 (stereo unspecified)	-14.0%	-7.0%	1.0%	.	-2.2	4.1	.
Cn1c(SCc2nc3ccccc3n2CCO)nc2ccccc21	0.0%	6.5%	0.1%	-2.6	3.4	-0.5	22.2%
CCOC(=O)N1CCC(NC(=O)c2cc(S(=O)(=O)N3CCOCC3)ccc2F)CC1	-19.4%	-0.9%	-0.8%	3.4	-9.1	-17.1	18.4%
CC(=O)N1N=C(c2ccc(Br)cc2)OC12CCCC2	5.7%[15.4 µM]	-9.9%	0.5%	-4.9	-12.8	8.8	10.5%
CC(C)n1c(C(=O)OCC(=O)NCc2ccc3c(c2)OCO3)cc2occc21	-29.1%	10.1%	-1.4%	-0.1	5.2	-10.9	-19.5%
Cc1ccc(-c2cc(N)n3nc(-c4ccc(C)cc4)cc3n2)cc1	8.5%	-1.9%	12.6µM*!	0.4	6.4	6.2	2.4%
COc1ccc(CNC(=O)C2CC(C)=C(C)CC2C(=O)O)cc1OC (stereo unspecified)	1.7%	1.8%	.	-4.8	1.2	5.7	14.9%
O=C(O)c1ccn(COc2ccc(Br)cc2)n1	-1.1%[15.4 µM]	6.3%	.	3.6	-2.8	7.6	7.1%
Cc1[nH]c(=O)[nH]c(=O)c1S(=O)(=O)N1CCCC(C(=O)N2CCC(Cc3ccccc3)CC2)C1 (stereo unspecified)	5.2%	-6.7%	0.9%	2.0	3.3	26.7	10.7%
Cc1ccc(CNC(=O)C(=O)NCC2OCCN2S(=O)(=O)c2cccs2)cc1 (stereo unspecified)	14.5%	16.6%	1.1%	4.4	1.5	6.8	10.3%
CCOc1cccc2sc(N(CCN(C)C)C(=O)/C=C/c3cccs3)nc12	-23.5%	-2.8%	-1.8%	.	-32.4	-8.9	-16.0%
Cc1nn(Cc2ccccc2)c(C)c1C(=O)N1CCN(CC(=O)Nc2ccccc2Cl)CC1	24.7%	-10.5%	1.1%	.	5.1	-6.9	.
COc1ccc(NS(=O)(=O)c2cccc(C(=O)NNC(=O)c3ccccc3OC)c2)cc1	-12.2%[15.4 µM]	-9.5%	-4.0%	.	-11.6	-7.6	.
N#Cc1c(-c2ccco2)nc(SCc2ccc(F)cc2)[nH]c1=O	?	21.6%	-2.4%	-2.1	-10.7	6.8	10.0%
COc1cc(C(=O)NCC(=O)N2CC=C(c3ccccc3)CC2)cc(OC)c1OC	-8.4%	-9.6%	-1.8%	.	-13.4	23.5	.
COc1ccc(C(=O)Nc2ccccc2C(=O)Nc2cc(C)ccn2)cc1	9.8%[15.4 µM]	-3.6%	1.4%	0.7	-7.1	3.8	-6.6%
O=C(O)C1=CCNCC1	.	0.5%	-1.4%	5.7&-0.5&-13.5	-7.7	.	-6.7%&6.9%&-14.7%
COc1cccc(NC(=O)c2ccccc2OCc2c(C)noc2C)c1	-11.2%	?	-0.7%	.	-21.9	1.1	.
CC(CCc1ccccc1)NC(=O)CSc1cccc[n+]1[O-] (stereo unspecified)	-8.8%[15.4 µM]	.	.	-1.1	-6.4	-0.2	6.6%
CCC(C)[C@H](NC(=O)N1CCC(C)CC1)C(=O)OC (stereo partly specified)	-11.7%[15.4 µM]	1.3%	.	1.4	-1.0	14.2	22.3%
c1cc2c(cc1C1=NNC(=NC3CC3)SC1)OCCO2	10.5%	-7.8%	-5.2%	3.4	-14.8	7.8	-6.4%
CC(C)c1ccc(Nc2c([N+](=O)[O-])c(=O)n(C)c3ccccc23)cc1	-34.1%[inhibitor]	-9.8%	.	11.1	-1.4	-3.4	-1.2%
O=C(OCc1cn(-c2ccc(Cl)cc2)nn1)c1ccccc1	-2.4%	-2.6%	-2.8%	2.0	11.7	-3.1	6.5%
Cc1nc(SC2C=CS(=O)(=O)C2)n[nH]1 (stereo unspecified)	-0.4%	8.8%	0.0%	0.2	-5.4	4.2	6.6%
CCNC(=S)N/N=C/c1ccc(OCc2ccc(C(=O)OC)cc2)cc1	-2.6%	-19.1%	-13.7%	3.1	0.1	-9.5	11.9%
Fc1ccccc1CSc1nnc(-c2cnccn2)n1Cc1ccco1	-1.9%	-4.3%	0.8%	0.1	4.0	3.8	2.6%
CC(C)(C)c1cnnn1-c1ccc(NC(=O)c2ccc(Br)o2)cc1	-8.7%	-18.2%	-0.3%	-1.6	-10.7	0.5	7.3%
COc1ccc(/C=C(\NC(=O)c2ccc(OC)c(OC)c2)C(=O)NCCc2c[nH]c3ccccc23)cc1	19.2%	-3.2%	-7.7%	-0.5	0.8	1.2	-0.1%
CCOc1ccc2cc(C#N)c(SCC(=O)NC(C)CC)nc2c1 (stereo unspecified)	.	.	.	1.3	.	-12.4	5.0%
Cc1cccc(-c2nc(Nc3cccc(O)c3)c3ccccc3n2)c1	12.4%	-13.8%	-15.0%	-2.7	-9.3	0.4	13.3%
COCC(=O)Nc1nnc(SCC(=O)N2CCCCC2)s1	1.8%	-9.8%	.	-1.6	-0.7	-13.0	15.8%
O=C(NCc1ccc2c(c1)OCO2)c1sccc1Br	-1.3%[15.4 µM]	-6.5%	0.8%	-1.0	-7.1	-18.6	14.3%
COc1ccc(NC(=O)CN2CCC3(O)CCCCC3C2c2ccccc2OC)cc1 (stereo unspecified)	.	.	.	2.0	.	-14.7	4.7%

# 5 of the entries above in order of the Menin-MLL FL inh value, smallest number first:
mol	gsp ag	Menin-MLL FL inh	D2 potentiator	Sfp PPTase inh
COc1ccc(CNC(=O)C2CC(C)=C(C)CC2C(=O)O)cc1OC (stereo unspecified)	1.7%	-4.8	1.2	14.9%
N#Cc1c(-c2ccco2)nc(SCc2ccc(F)cc2)[nH]c1=O	?	-2.1	-10.7	10.0%
CC(C)(C)c1cnnn1-c1ccc(NC(=O)c2ccc(Br)o2)cc1	-8.7%	-1.6	-10.7	7.3%
CC(=O)c1cccc(NC(=O)c2ccc(-c3ccccc3[N+](=O)[O-])o2)c1	18.9%[15.4 µM]	6.0	-21.1	-69.5%
CC(C)c1ccc(Nc2c([N+](=O)[O-])c(=O)n(C)c3ccccc23)cc1	-34.1%[inhibitor]	11.1	-1.4	-1.2%

# In the list so far, these contain a cyano group.
canonical_smiles	gsp ag	gsp antagonist	ClpP mod	Menin-MLL FL inh	D2 potentiator	TRPV1 PAM	Sfp PPTase inh
N#Cc1c(-c2ccco2)nc(SCc2ccc(F)cc2)[nH]c1=O	?	21.6%	-2.4%	-2.1	-10.7	6.8	10.0%
CCOc1ccc2cc(C#N)c(SCC(=O)NC(C)CC)nc2c1 (stereo unspecified)	.	.	.	1.3	.	-12.4	5.0%

# From PubChem BioAssay
